# Screening results as filed in PubChem.
# Prx2 Sm inh: inhibitors of Schistosoma mansoni peroxiredoxin 2 | Potency, µM | AID 448 | hit rate 0.07% among 65,000 | S. mansoni Prx2 activity coupled to TGR/GSH (TGR is thioredoxin glutathione reductase), NADPH fluorescence loss, qHTS; some inactives read as strong as hits; active means full or partial inhibition curve with a strong effect at the top dose; inconclusive means weaker partial or single-point curve; inactive means no accepted curve; note: series up to 57 µM; many of its hits are not listed in these tables
#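 Activity is read as the drop in NADPH fluorescence (365/450 nm), recorded every 30 sec for 8 min after H2O2 addition. Prx2 is coupled to TGR-driven NADPH oxidation through glutathione, in phosphate buffer pH 7.4.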
# LT uptake inh: anthrax lethal toxin internalization inhibition; Cells, anthrax lethal toxin internalization, FRET ratio (460/530); Potency, µM (highest dose often 40 µM), for inactives: top-dose activity change, negative = inhibition, most hits filed as inhibitors; hit rate 0.67% among 70,000; active = well fitted falling ratio curve with the 530 nm signal flat; inconclusive = other ratio curves, or a change in one channel alone; inactive = flat curves in the ratio and both channels; the % refers to the ratio; note: % is set by controls: 0 for no effect and ±100 for the full control effect; nearly all actives have a fitted effect of over 50% in size; tested in ME-180 cells; beta-lactamase reporter
# The depositor's hits bear a star; ? = inconclusive; . = no result given; [ ] = dose if it differs, or a comment. Potency is the fitted concentration of half-maximal effect. These rows are one share of the data (hit frequency here may not be typical).
SMILES,Prx2 Sm inh,LT uptake inh
O=C(c1cccc(N2CCCC2=O)c1)N1CCC2(CC1)OCCO2,>57,4%
Cc1cccc(N(C(=O)CCC(=O)Nc2cc(C)on2)C(C(=O)NC2CCCC2)c2ccncc2)c1 (stereo not given),>57,0%
OCCN(Cc1ccccc1)Cc1ccc(F)c(F)c1,>57,-19%
c1csc(-c2csc3ncnc(NCCCN4CCOCC4)c23)c1,>57,.
O=C(CSCc1ccccn1)Nc1ccccc1,>57,-14%
O=C(Nc1ccc2ccccc2c1)c1cccnc1,.,?
Cn1c(=O)c2c(SCc3ccccc3)nc(-c3ccco3)nc2n(C)c1=O,>57,9%
OCC#CCSc1nnc(-c2ccc(Br)cc2)o1,>57,-10%
Cc1ccc(CNC(=O)CCNC(=O)Cn2ccc3ccccc3c2=O)o1,>57,14%
O=C1CN(S(=O)(=O)c2ccccc2)CC(=O)N1CCc1ccccc1,>57,-20%
Cc1ccc(-c2noc(CCC(=O)N3CCCc4ccccc43)n2)cc1,>57,-14%
CCOc1ccc(NC(=O)C2C3C=CC4(CN(C(C(=O)OC)C(C)C)C(=O)C24)O3)cc1 (stereo not given),>57,8%
CCOC(=O)OCC1OC(c2ccccc2)C=CC1Oc1ccc2oc(=O)cc(C)c2c1 (stereo not given),.,-2%[8 µM]
O=C(NCc1ccccc1)c1cc(-c2ccco2)on1,>57,5%
Cc1noc(C)c1S(=O)(=O)N1CCCC(C(=O)N2CCN(C3CCCCC3)CC2)C1 (stereo not given),>57,2%
CCOc1ccc(N(CC(=O)NC2CCCC2)C(=O)CCC(=O)Nc2ccccn2)cc1,>57,0%
Cc1ccccc1N(CC(=O)NCC1CCCO1)C(=O)C1(C)CC(=O)N=C2C=CC=CN21 (stereo not given),>57,-3%
CN(Cc1ccco1)c1ncnc2ccc(-c3ccoc3)cc12,>57,-16%
CSc1ccccc1NC(=O)c1cnc2scc(C)n2c1=O,>57,?
CCOC(=O)CSc1nc2ccccc2n1CC(=O)N(C(C)C)C(C)C,>57,-3%
CCOC(=O)c1ccc(NC(=O)C(C)N2C(=O)c3ccccc3C2=O)cc1 (stereo not given),>57,-5%
CC(=O)c1nnn(-c2nc(N3CCCC3)nc(N(c3ccccc3)c3ccccc3)n2)c1C,>57,2%
Cc1noc(C)c1S(=O)(=O)N1CCC(C(=O)Nc2ccc(OC(F)(F)F)cc2)CC1,>57,-8%
CCOc1ccc(-c2nnc(N(CC)C(=O)C3CCC3)s2)cc1,>57,-19%
CC(C)c1cccc2nc3c(c(C(C)(C)C)c12)Cn1c-3cccc1=O,>57,?
O=C(OCc1cc(-c2ccccc2)no1)c1ccc2ccccc2n1,>57,5%
CCOc1ccccc1C(=O)Nc1ccccc1C(N)=O,>57,-11%
CNC(=O)[C@H](C)/C=C(\c1cccnc1)C(NC(=O)OCc1ccccc1)c1ccc(C(=O)OC)cc1 (stereo not given in full),.,9%
COc1ccc(/C=C/N(CCc2ccc(OC)c(OC)c2)C(=O)c2ccccn2)cc1,.,-5%[8 µM]
CCN1CCN(c2ncc(C(=O)N3CCN(c4ccccc4OC)CC3)c3ccccc23)CC1,>57,-11%

# Quoted at random: six compounds from above
SMILES,Prx2 Sm inh,LT uptake inh
CNC(=O)[C@H](C)/C=C(\c1cccnc1)C(NC(=O)OCc1ccccc1)c1ccc(C(=O)OC)cc1 (stereo not given in full),.,9%
O=C(OCc1cc(-c2ccccc2)no1)c1ccc2ccccc2n1,>57,5%
CC(=O)c1nnn(-c2nc(N3CCCC3)nc(N(c3ccccc3)c3ccccc3)n2)c1C,>57,2%
CCN1CCN(c2ncc(C(=O)N3CCN(c4ccccc4OC)CC3)c3ccccc23)CC1,>57,-11%
CCOc1ccc(-c2nnc(N(CC)C(=O)C3CCC3)s2)cc1,>57,-19%
CCOc1ccccc1C(=O)Nc1ccccc1C(N)=O,>57,-11%

# (cont.)
SMILES,Prx2 Sm inh,LT uptake inh
CS(=O)(=O)c1ccc(-c2nn[nH]n2)cc1,>57,-17%
COCCNc1nc(C)nc2c1nc(-c1ccccc1)n2CCN(C)C,.,4%
Cc1ccc(C(c2sc3ncnn3c2O)N2CCCCC2)cc1 (stereo not given),>57,1%
CS(=O)CSc1nc2c(cc1C#N)CCCC2 (stereo not given),>57,-15%
O=C(CN(CC1CCCO1)C(=O)CCC(=O)Nc1nccs1)NCC1CCCO1 (stereo not given),>57,?
O=C(NC1(O)C(=O)c2ccccc2C1=O)c1ccccc1,>57,22%
Cc1cc(C(=O)CSc2nnc(-c3cccs3)n2Cc2ccccc2)c(C)n1C,>57,-4%
COc1cc(OC)cc(C(=O)NCCn2ccc3ccccc32)c1,>57,7%
Cc1ccc(C(=O)CSc2nnc(CNc3ccc(C)cc3C)o2)cc1,>57,-9%
CC1=CCC2(CO)COC(c3ccccc3O)C1C2 (stereo not given),.,-19%
CCOC(=O)C1=C(NC(=O)c2ccc(Br)o2)Nc2ccccc2N=C1,>57,.
COc1ccc(-c2cc(C(F)(F)F)n3nc(C)cc3n2)cc1,>57,-13%
CCOC(=O)C1=C(C)NC(=O)NC1c1c(C)nn(-c2ccccc2)c1Cl (stereo not given),>57,-30%
Cc1cc(C)cc(OCC(=O)Nc2cccc(-c3nnc(-c4ccco4)o3)c2)c1,>57,-10%
CCCC(c1nnnn1CC1CCCO1)N1CCN(c2cc(Cl)ccc2C)CC1 (stereo not given),>57,-28%
Nc1nc2n(n1)C(c1c(F)cccc1Cl)CC(c1ccc(F)cc1)N2 (stereo not given),>57,-2%
CCCCNc1nc2c(c(=O)[nH]c(=O)n2C)n1CCOc1ccccc1,>57,7%
Cc1nn(C)cc1CN(C)C(=O)c1sc2cccc(Cl)c2c1Cl,.,?
N#Cc1c(N)sc2c1CCN(C(=O)OCc1ccccc1)C2,>57,?
CCOC(=O)c1c(C)[nH]c(C)c1C(=O)COC(=O)CNC(=O)c1ccc(OCC)cc1,>57,1%
COC(=O)[C@@]1(Cc2ccc(F)cc2)[C@H]2c3cc(C(=O)N4CCCC4)n(CCc4c[nH]c5ccccc45)c3C[C@H]2CN1C(=O)c1ccccc1,>57,?
CC(C)CCNc1ncnc2[nH]ncc12,>57,-1%[8 µM]
CCOC(=O)COc1ccc2c(c1)C(=O)CC(C)(c1cccnc1)O2 (stereo not given),>57,.
Cc1cccc(NC(=O)C2CCN(S(=O)(=O)c3cccc4cccnc34)CC2)n1,>57,-20%
C=CC[C@@H]1C=C[C@@H](O/N=C\[C@@H](NS(=O)(=O)c2ccc(C)cc2)[C@H](C)/C=C\CC(=O)OC)[C@@H](CO)O1,.,-1%[8 µM]
COC(=O)C(C)NC(=O)C1CCCN1S(=O)(=O)c1cc(C)c(Cl)cc1C (stereo not given),.,-18%
CC(C)CO/N=C1/C[C@@H](O)[C@@H](O)[C@@H]2[C@@H]3C(=O)N(Cc4ccc5c(c4)OCO5)C(=O)[C@H]3CC[C@@H]12,.,-7%[8 µM]
COc1ccc(N2CCN(Cc3cc(=O)oc4ccc5ccccc5c34)CC2)cc1,>57,8%
COC(=O)[C@@]1(Cc2ccc(F)cc2)[C@H]2c3cc(C(=O)N(C)C)[nH]c3C[C@H]2CN1C(=O)c1ccccc1,>57,3%
N=C(CC(=O)Nc1ccccn1)c1ccccc1,>57,8%[8 µM]
CCOC(=O)c1cc(C#N)c(SCc2ccc(C#N)cc2)nc1C,>57,19%
O=C1OC2CC3CC1CC(O)(C3)C2 (stereo not given),>57,9%
CC(Oc1cc(C(F)(F)F)cc(C(F)(F)F)c1)C(=O)NC(N)=O (stereo not given),>57,-15%
CCN(CC)CCN=C1CCCc2ccccc2N1,.,?
CCC(C)(C)n1nnnc1CN(Cc1ccco1)Cc1cc2cc3c(cc2[nH]c1=O)OCO3,>57,12%
NCCSS(=O)(=O)CCN,>57,-8%[8 µM]
Cn1c(=O)oc2cc(S(=O)(=O)N3CCCC(C(=O)N4CCc5ccccc5C4)C3)ccc21 (stereo not given),>57,?
O=c1ccc2ccccc2o1,.,-3%
COc1cccc(-n2c(SCC#N)nnc2-c2cnccn2)c1,>57,-4%
Clc1ccc(COC(Cn2ccnc2)c2ccc(Cl)cc2Cl)c(Cl)c1 (stereo not given),>57,?
Cc1cc2nnc(SCC(=O)NCc3cccs3)n2c(N)n1,>57,8%
CCn1c(SCC(=O)Nc2ccccc2N2CCOCC2)nnc1-c1ccccc1O,>57,-10%
CCOC(=O)c1c(NC(=O)COc2ncnc3sccc23)sc2c1CCC2,>57,-13%
CCOc1cc(CN2CCN(C(=O)c3ccco3)CC2)ccc1OC,.,-16%
c1csc(-c2ccc3ccccc3n2)c1,>57,-27%
CCCCc1c2ccccc2nc2[nH]c3ccccc3c12,>57,-26%
Cc1cccc(-n2nnnc2SCC(=O)c2cc(C)n(CC3CCCO3)c2C)c1 (stereo not given),>57,-20%
CCOC(=O)c1c(C)nc(-c2ccccc2)nc1NC(C)=O,>57,-6%
COC(=O)c1cc(NC(=O)CC2C(=O)NCCN2C(=O)c2ccccc2)cc(C(=O)OC)c1 (stereo not given),>57,0%
Nc1[nH]ncc1C(=O)Nc1cccc(C(F)(F)F)c1,>57,19%

# (listing goes on)
SMILES,Prx2 Sm inh,LT uptake inh
Cc1ccc(NCN2C(=O)c3ccccc3C2=O)c(C)c1,>57,?
Cc1ccc(S(=O)(=O)C(CCC(=O)N2CCOCC2)S(=O)(=O)c2ccc(C)cc2)cc1,>57,9%
CC(=O)Nc1ccc(S(=O)(=O)NCc2cn3ccsc3n2)cc1,>57,-17%
O=C(c1ccco1)N1CCC[C@@]2(CCN(Cc3nccs3)C2)C1,>57,?
O=c1[nH]c(NCc2ccccc2)nc2c1CCC2,>57,-9%
COc1cccc(C(=O)SC2=NCCS2)c1,>57,-22%
COc1ccccc1N(CC(=O)NCCSc1ccccc1)S(C)(=O)=O,.,-7%
Cc1cccc(OCC(O)CN2CCN(C3CCCCC3)CC2)c1 (stereo not given),>57,2%
COc1cccc(Cn2c(=O)c(CCc3ccccc3)nc3cnc(N4CCOCC4)nc32)c1,>57,?
CC(C)=NO[C@@H](C)c1cn([C@@H]2COC[C@@H]2O)nn1,.,-6%[8 µM]

# Taken from above.
# CC(=O)Nc1ccc(S(=O)(=O)NCc2cn3ccsc3n2)cc1 – Prx2 Sm inh = >57
# Cc1ccc(NCN2C(=O)c3ccccc3C2=O)c(C)c1 – Prx2 Sm inh = >57
# Cc1cccc(OCC(O)CN2CCN(C3CCCCC3)CC2)c1 (stereo not given) – LT uptake inh = 2%

# The listing continues:
SMILES,Prx2 Sm inh,LT uptake inh
Cc1ccc(OCC(=O)Nc2ccc(O)c(C(=O)O)c2)cc1C,>57,0%
CCOCC(=O)Nc1c(C(=O)Nc2ccccc2OC)oc2ccccc12,>57,-5%
N#C/C(=C1/CCCCCN1)c1nc2ccccc2[nH]1,>57,-6%
Cc1nnc(NC(=O)c2ccc(S(=O)(=O)N(C)Cc3ccccc3)cc2)o1,>57,6%
COCCn1nnnc1C(c1cccc(C#N)c1)N1CCCCCC1 (stereo not given),>57,-13%
CCc1cccc2nc3c(c([Si](C)(C)C)c12)Cn1c-3cccc1=O,>57,?
COc1ccccc1NC(=O)CN(Cc1ccco1)C(=O)c1ccc(-n2nc(C)cc2C)cc1,.,-11%
O=C(NCc1ccc(F)cc1)C1CCN(C(=O)NCc2ccccc2)CC1,>57,-6%
CCC1CCCCN1C(=O)CSc1nc(N)c(NC(=O)c2ccco2)c(=O)[nH]1 (stereo not given),>57,5%
O=c1oc2ccccc2c(O)c1/C=N/c1ccccn1,>57,-1%

# Not a retest: entries from further up.
SMILES,Prx2 Sm inh,LT uptake inh
Cc1ccc(OCC(=O)Nc2ccc(O)c(C(=O)O)c2)cc1C,>57,0%
CCOCC(=O)Nc1c(C(=O)Nc2ccccc2OC)oc2ccccc12,>57,-5%
N#C/C(=C1/CCCCCN1)c1nc2ccccc2[nH]1,>57,-6%
Cc1nnc(NC(=O)c2ccc(S(=O)(=O)N(C)Cc3ccccc3)cc2)o1,>57,6%
COCCn1nnnc1C(c1cccc(C#N)c1)N1CCCCCC1 (stereo not given),>57,-13%
CCc1cccc2nc3c(c([Si](C)(C)C)c12)Cn1c-3cccc1=O,>57,?
COc1ccccc1NC(=O)CN(Cc1ccco1)C(=O)c1ccc(-n2nc(C)cc2C)cc1,.,-11%

# (listing goes on)
SMILES,Prx2 Sm inh,LT uptake inh
COCCn1c(=O)c(-c2ccc(OC)cc2)nc2cnc(OCc3ccccc3)nc21,>57,?
COc1ccccc1Cn1c(=S)[nH]c2cc(C(=O)N3CCN(C)CC3)ccc2c1=O,>57,-10%
Cc1cc(NC(=O)CSC2=Nc3ccccc3C3=NC(Cc4ccccc4)C(=O)N23)n[nH]1 (stereo not given),>57,?
CC(C)(C)C1CCc2onc(C(=O)N3CCOCC3)c2C1 (stereo not given),>57,11%
COc1nc(OC)nc(N2CCC(C(=O)NC3CCCCCC3)CC2)n1,>57,-8%
COc1nc(-c2ccc(Cl)cc2)ccc1-c1noc(-c2ccncc2)n1,>57,-5%
NC1(C(=O)O)CCC1,>57,?
CCOC(=O)C1CCN(C(=O)CC(C)c2ccccc2)CC1 (stereo not given),>57,-7%
COc1cc(C(=S)N2CCCC2)cc(Cl)c1O,>57,0%
COc1cccc(OC)c1C(=O)N1CCN(Cc2ccncc2)CC1,>57,7%
O=C(Nc1cccc(F)c1)N1CC2(CCN(C(=O)c3cccc(F)c3)CC2)C1,>57,-2%
O=C(c1cnsn1)N1CCN(c2ccccn2)CC1,>57,-10%
CC(=O)Nc1ccc(NC(=O)CN(C)CCC#N)cc1,>57,?
Cc1ccc(NC2=CC(=O)CC(C)(C)C2)c(N)c1,>57,3%
CCOC(=O)c1nn(-c2ccc(OC)cc2)c(=O)c2c(NC(=O)c3ccco3)scc12,>57,11%
